# T cruzi inh = inhibitors of intracellular T. cruzi growth, primary screen, luminescence, NIH3T3 host cells | T. cruzi beta-gal in NIH3T3, 90 h | inhibition, % (concentration not given with the values) | hit rate 1.4% among 300,000;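 active = mean inhibition across valid replicates above about 55%, limit read from the data; inconclusive = mean below that limit but half or more replicates reach it; inactive = mean below it, under half of replicates reach it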;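 also: signal also drops with host cell toxicity which is not excluded here; 0% = plate median of DMSO wells and 100% = zero luminescence signal; higher percent means less beta-gal luminescence so fewer parasites; stock transfer was 50 nL into about 50 µL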
# A1 inh = caspase 3/7 activation in MEF A1-2A-BIM cells, primary screen, A1 inhibitor project, cell-based, luminescence, HTS | Caspase-Glo 3/7 luminescence, 3 h; percent of clofoctol response, vehicle zero | hit rate 0.066% among 330,000 | caspase activation, % (test concentration not listed);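 active = over half of replicate activation scores above 10%, or exactly half above 10 with the replicate mean above 10; inconclusive = replicate mean below 10 yet half the replicates above 10; inactive = over half of replicates below 10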;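 also: wells of about 30 µL received 50 nL stock; many hits fall short of the cut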
# Vif A3G = inhibitors of Vif binding to APOBEC3G peptide, primary screen, biochemical, TR-FRET, GST-Vif 1-94, biotin-A3G peptide, dose response retest (AID 1117319) | Virion infectivity factor (Human immunodeficiency virus type 1 group M subtype B (isolate … | TR-FRET GST-Vif / biotin-A3G peptide binding; higher % means a stronger effect; test concentration not given here; strong numbers were not always called active | one-dose inhibition, %; IC50 in µM for titrated hits | hit rate 0.57% among 260,000;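 active = above the screen mean plus three standard deviations and confirmed in dose response; inconclusive = results disagree or hit not tested in dose response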;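 also: Vif residues 1-94 fused to GST binding biotinylated APOBEC3G peptide 110-148; 0% = full assay without inhibitor and 100% = GST in place of GST-Vif; retest series ran down from 100 µM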
# RanGTP-Impb inh = inhibitors of RanGTP-importin-beta interaction, primary screen, biochemical, FRET, CFP-Ran, YFP-importin-beta, homogeneous. Ran GTPase (GTP-bound) - importin-beta complex. cell-free CFP-Ran/YFP-importin-beta FRET ratio. inhibition, % (concentration not given with the values). hit rate 1.1% among 300,000. AID 2216, 2009;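 active = most replicates above 15%; inconclusive = exactly half above 15%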;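 also: 0% = DMSO wells and 100% = Ran loaded with GDP instead of GTP; wells of about 40 µL received 100 nL stock; the first replicate is given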
# Beta cell apopt = inhibitors of cytokine-induced beta cell apoptosis, primary screen, luminescence. INS-1E cytokine-induced death, ATP luminescence, 48 h; percent of positive-control rescue, neutral wells zero. protection from apoptosis, % (test concentration not listed). hit rate 0.8% among 300,000;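 active = all replicates at 75% or more, or half of them and the mean; inconclusive = half reach 75% but not the mean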;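 also: 0% = cytokine-treated negative control wells and 100% = positive control rescue; higher means more ATP so stronger rescue from cytokine killing; wells of about 40 µL received 100 nL stock; the first replicate is given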
# Calb FLC = C. albicans growth inhibition with fluconazole, primary screen, CaCi-2 strain, Alamar Blue fluorescence; C. albicans CaCi-2 (fluconazole-resistant clinical isolate) + fluconazole, 48 h; growth inhibition, % (test concentration not listed); hit rate 0.57% among 300,000; AID 1979, 2009;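 active = most replicates above 75%; inconclusive = exactly half above 75%; inactive = most below 75%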;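 also: all wells also contain fluconazole at 8 µg/ml as a sub-toxic cotreatment; 0% = median of DMSO wells and 100% = median of geldanamycin control wells; wells of about 8 µL received 7.5 nL stock; the first replicate is given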
# AF4-AF9 inh = inhibitors of AF4 peptide binding to AF9, primary screen, biochemical, AlphaScreen, biotin-AF4 peptide, FLAG-AF9, single point | AID 651704, 2012 | Protein AF-9 (Homo sapiens), P42568 | hit rate 0.47% among 350,000 | inhibition, % at 10 µM;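 active = every replicate reaching a set inhibition limit, whatever the replicate mean, cut at about 25% in these data; inconclusive = mean inhibition reaches that limit but some replicates miss it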;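 also: 0% = plate neutral control median and 100% = total signal loss; the record names both 10 and 1 µM as test concentration; the first replicate is given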
# LANA-H2A inh = blockers of LANA interaction with H2A/H2B – biochemical, FP readout, HTS, primary screen. cell-free LANA-H2A/H2B peptide, fluorescence polarization. inhibition, % (no concentration beside the values). hit rate 0.6% among 320,000; in the data active = inhibition mostly above about 10%, no sharp cut-off; inactive = mostly below about 6.7%;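 also: stock transfer was 7.5 nL into about 10 µL; 0% = median of vehicle wells and 100% = median of positive control wells; one replicate is shown; the record names a cut of 25% in any replicate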
# Target sequence (Q9QR71 whole entry, looked up): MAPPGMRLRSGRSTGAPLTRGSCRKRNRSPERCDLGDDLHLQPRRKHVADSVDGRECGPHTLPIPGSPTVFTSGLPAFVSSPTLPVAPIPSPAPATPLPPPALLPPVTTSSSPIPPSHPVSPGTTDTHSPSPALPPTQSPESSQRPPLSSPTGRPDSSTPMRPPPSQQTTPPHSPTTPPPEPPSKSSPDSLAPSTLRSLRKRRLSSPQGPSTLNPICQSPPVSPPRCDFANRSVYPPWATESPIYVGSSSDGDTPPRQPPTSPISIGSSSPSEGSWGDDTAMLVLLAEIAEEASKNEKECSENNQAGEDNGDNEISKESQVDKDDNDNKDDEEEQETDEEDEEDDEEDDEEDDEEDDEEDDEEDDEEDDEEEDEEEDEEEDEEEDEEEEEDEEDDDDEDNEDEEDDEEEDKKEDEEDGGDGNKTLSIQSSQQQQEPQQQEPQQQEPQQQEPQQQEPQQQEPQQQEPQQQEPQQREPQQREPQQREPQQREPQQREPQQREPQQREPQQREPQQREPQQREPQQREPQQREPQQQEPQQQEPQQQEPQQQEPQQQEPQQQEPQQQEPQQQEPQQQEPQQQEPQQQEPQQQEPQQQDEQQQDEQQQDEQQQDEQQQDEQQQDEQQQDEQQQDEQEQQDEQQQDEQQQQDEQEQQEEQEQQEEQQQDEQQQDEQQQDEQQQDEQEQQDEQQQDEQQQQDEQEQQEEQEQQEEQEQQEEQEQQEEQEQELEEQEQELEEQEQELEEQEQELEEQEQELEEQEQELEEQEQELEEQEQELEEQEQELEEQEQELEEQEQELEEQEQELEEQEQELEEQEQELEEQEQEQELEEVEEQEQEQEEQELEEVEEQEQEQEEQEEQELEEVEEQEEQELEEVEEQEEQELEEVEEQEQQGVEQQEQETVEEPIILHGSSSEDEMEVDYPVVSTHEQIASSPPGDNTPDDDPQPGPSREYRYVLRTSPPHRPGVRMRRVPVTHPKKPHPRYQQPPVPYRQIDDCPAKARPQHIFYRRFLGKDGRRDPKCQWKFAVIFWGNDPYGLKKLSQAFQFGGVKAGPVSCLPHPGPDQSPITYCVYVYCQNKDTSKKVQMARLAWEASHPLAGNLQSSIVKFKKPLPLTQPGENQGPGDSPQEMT
# * hit, by the source's call; u = inconclusive; x = not tested or not shown.
item	Molecule	T cruzi inh	A1 inh	Vif A3G	RanGTP-Impb inh	Beta cell apopt	Calb FLC	AF4-AF9 inh	LANA-H2A inh
1	COc1cccc(-c2nc3ccc([N+](=O)[O-])cc3o2)c1	-3	-7.9	-2%	1.5	2	0	0.0	1.4
2	Cc1cc2occ(CC(=O)N(CCC(C)C)c3c(N)n(Cc4ccccc4)c(=O)[nH]c3=O)c2cc1C	7	-0.6	9%	3.4	11	-6	0.0	-0.5
3	CSc1sc(C)cc1C1C(C#N)=C(N)N(c2cccnc2)C2=C1C(=O)CCC2 (stereo not drawn)	-29	-0.5	12%	18*	11	4	x	0.3
4	Cc1ccc(S(=O)(=O)N2CCN(Cc3nc4ccccc4[nH]3)CC2)cc1C	10	0.4	-1%	u	-2	-3	x	3.8
5	COc1ccc2cc3cc(C(=O)Nc4cc(OC)c(OC)c(OC)c4)oc3nc2c1	9	-0.2	-5%	u	3	22	x	0.3
6	COc1ccc(C(CCN(Cc2ccc(OC)c(OC)c2)C(C)=O)c2ccccc2)cc1 (stereo not drawn)	21	-0.1	x	2.1	3	u	2.4	3.8
7	COC(=O)c1onc(-c2c(C)cc(C)cc2C)c1C(=O)OC	-2	-0.2	-3%	2.1	-3	-5	x	1.2
8	CCCN1C2CCCC1CC(NC(=S)Nc1cc(C)ccc1C)C2 (stereo not drawn)	-16	-0.8	-4%	0.3	-1	-11	x	-0.5
9	CC(C)(C)C(=O)OCc1nc(-c2ccc3c(c2)OCCO3)cs1	0	-4.7	0%	-3.3	x	-2	-1.8	9.9
10	Cc1cc(C)cc(NC(=O)c2cccn2-c2ncc(C(F)(F)F)cc2Cl)c1	4	-0.2	-5%	3.6	-1	-3	x	3.4
11	CC(C)Cn1c(N)c(C(=O)COC(=O)c2cc(C(F)(F)F)nc3c(C(F)(F)F)cccc23)c(=O)n(C)c1=O	-8	-1.3	x	-0.6	-5	3	-3.7	1.3
12	O=S(=O)(NCc1cccnc1)c1ccc(Cl)s1	9	0.0	-7%	3.3	1	-13	x	-2.2

# The last 4 entries of the section before are carried over, then new ones follow.
item	Molecule	T cruzi inh	A1 inh	Vif A3G	RanGTP-Impb inh	Beta cell apopt	Calb FLC	AF4-AF9 inh	LANA-H2A inh
9	CC(C)(C)C(=O)OCc1nc(-c2ccc3c(c2)OCCO3)cs1	0	-4.7	0%	-3.3	x	-2	-1.8	9.9
10	Cc1cc(C)cc(NC(=O)c2cccn2-c2ncc(C(F)(F)F)cc2Cl)c1	4	-0.2	-5%	3.6	-1	-3	x	3.4
11	CC(C)Cn1c(N)c(C(=O)COC(=O)c2cc(C(F)(F)F)nc3c(C(F)(F)F)cccc23)c(=O)n(C)c1=O	-8	-1.3	x	-0.6	-5	3	-3.7	1.3
12	O=S(=O)(NCc1cccnc1)c1ccc(Cl)s1	9	0.0	-7%	3.3	1	-13	x	-2.2
13	Clc1nc(-c2cccnc2)nc2scc(-c3ccccc3)c12	11	0.2	20%	-3.5	-8	39	-2.5	-0.3
14	N#Cc1cc(Nc2c(N)nc[nH]c2=O)c([N+](=O)[O-])cc1C#N	4	-0.4	11%	0.4	4	6	-4.6	6.1
15	COc1ccc(OC)c(S(=O)(=O)N2CCC(C(=O)N3CCCCCC3)CC2)c1	26	0.1	2%	8.7	-5	1	1.2	1.8
16	CCCCN(C)C(=O)c1nc2ccccn2c1CN1CCN(C/C=C/c2ccccc2)CC1	41	0.6	-12%	1.7	4	-20	3.9	-1.0
17	Cn1c(N)c(N2CCCCC2)c(=O)n(CC(=O)Nc2ccc(Cl)c(Cl)c2)c1=O	1	-0.2	29%	-0.3	-4	0	x	-0.6
18	Cc1cc(-c2ccccc2)nc2cc(C(=O)N(Cc3ccccc3)Cc3ccccc3)nn12	29	-0.3	-12%	1.6	19	2	x	-1.0
19	COc1ccc(C(=O)Nc2ccc(NC(=O)c3cccs3)cn2)cc1	-2	0.9	x	-3.0	-4	-10	0.1	-0.4
20	COCCNC(=O)C(NC(=O)C1CCC(C)CC1)C(C)C (stereo not drawn)	-7	1.8	x	-3.2	-2	3	-15	3.8
21	O=C(CSc1nnc(NC(=O)c2cccc(Br)c2)s1)NCC1CCCO1 (stereo not drawn)	-1	-2.2	x	4.5	x	-1	-1.4	-8.9
22	COc1ccc(C(=O)Nc2cccc(C(C)=O)c2)c(OC)c1OC	-5	-0.3	-1%	-2.2	-3	3	x	2.4
23	Cc1c(C(=O)O)sc2nc3n(c(=O)c12)CCCCC3	-6	0.3	33%	-3.0	-3	-10	x	3.8
24	O=C(Nc1ccc(C(=O)OC[C@@H]2CCCN3CCCC[C@H]23)cc1)c1cccc(Br)c1	41	-0.2	-4%	2.5	-9	4	14	0.3
25	O=C(CNC(=O)c1cccs1)c1ccc(Br)cc1	-10	-3.8	1%	3.7	5	0	-0.7	-1.4
26	O=c1ccccn1CCOc1ccc(Cl)cc1	-9	0.5	17%	-1.4	-1	5	-0.6	0.9
27	COc1ccccc1OCCOc1ccc(/C=C2\C(=N)N3N=C(C)SC3=NC2=O)cc1	-3	-1.2	x	-4.3	-3	-3	-2.4	2.4
28	Nc1nnc(SCC(=O)NCCOc2ccccc2)s1	-5	0.0	u	2.1	-3	-6	x	-3.4
29	CN(CC1COCCO1)C(=O)c1cc(COc2c(F)cccc2F)on1 (stereo not drawn)	6	0.6	-1%	-4.1	0	3	-4.7	116*
30	CCCNC(=O)Cn1cnc2sc(C(=O)N3CCCC(C(=O)OCC)C3)c(C)c2c1=O (stereo not drawn)	-9	-0.9	u	1.1	-10	0	x	6.2
31	CCOc1ccc(C2=Nc3ccc(Br)cc3C(c3ccc(N4CCOCC4)cc3)=NN2)cc1	21	-0.3	18%	-5.6	2	-9	x	2.2
32	Brc1ccc(-c2nn3c(Cc4ccccc4)nnc3s2)o1	-2	1.0	-10%	-3.4	-2	3	x	-2.1
33	O=C(CSc1nnc(-c2ccccc2F)o1)Nc1ccc(N2CCOCC2)cc1	x	-0.4	5%	x	-1	x	1.0	6.3
34	COc1ccc(S(=O)(=O)c2c(O)cc(C)c(NS(=O)(=O)c3ccccc3)c2C)cc1	6	0.1	x	1.0	0	5	-0.9	4.3
35	Cc1ccc(S(=O)(=O)NCC2COc3ccccc3O2)cc1 (stereo not drawn)	-10	0.8	2%	-5.0	-7	-2	-3.2	-2.3
36	O=C(CCc1c[nH]c2ccccc12)NN1C(=O)NC2(CCCCC2)C1=O	x	-1.0	-1%	x	0	x	0.7	-7.7
37	CCN(CC(=O)NCc1cccs1)C(=O)c1ccc(-c2cccc(C(F)(F)F)c2)o1	0	1.3	x	-2.0	x	5	-7.4	-2.5
38	CCn1cc(/C=N\NC(=O)COc2cccc(C)c2C)c(C)n1	-9	-0.2	x	0.0	-6	-9	x	-9.9
39	CCc1ccc(N(CC(=O)NCc2ccc(F)cc2)C(=O)c2csnn2)cc1	-5	0.0	-3%	u	0	-13	0.5	-1.5
40	CSc1c(CC(=O)Nc2ccccc2)n(Cc2ccccc2)c2ccccc12	20	0.5	16%	-1.7	8	-9	0.2	-5.4
41	COc1ccc(NC(=O)NNC(=O)c2ccc3ccccc3c2O)c(OC)c1	0	1.3	-1%	-0.8	4	10	-2.9	2.3
42	CCC(C)NC(=O)c1ccccc1NC(=O)CN(c1cc(C)ccc1OC)S(C)(=O)=O (stereo not drawn)	12	0.8	10%	8.6	-4	22	0.2	-3.5
43	Nc1c(-c2ccccc2)c(CN2CCOCC2)nn1-c1ccc(C(=O)O)cc1	3	1.2	-3%	32*	-14	-17	x	-0.1
44	O=C(NCCC1CCCCN1S(=O)(=O)c1ccccc1)C(=O)Nc1ccccc1 (stereo not drawn)	2	-0.4	8%	1.6	x	13	-0.5	1.0
45	Cc1nn(Cc2c(Cl)cccc2Cl)c(C)c1NC(=O)/C=C/c1cnn(C)c1C	7	-0.4	u	-5.8	1	-20	x	1.1
46	O=C(Nc1ccc(OC(F)(F)F)cc1)c1ccc2nc[nH]c2c1	10	-3.0	x	20*	x	-5	2.9	-2.5
47	O=C1CNC(=O)/C(=C\c2ccc(F)cc2)N1	2	0.2	-7%	2.3	x	7	-0.5	0.6
48	Cc1[nH]c2ccccc2c1/C=N/NC(=O)c1ccccc1	2	-0.4	-10%	0.6	-6	4	1.1	-0.7
49	O=C(NCC1CCCO1)c1ccc2c(c1)S(=O)(=O)c1ccccc1C2=O (stereo not drawn)	-12	0.2	x	-2.3	-2	5	3.0	-2.9
50	Cc1cc(C)cc(C(=O)N2CCN=C2c2ccccc2)c1	-16	0.3	3%	1.4	3	14	0.5	7.0
51	CCOc1ccccc1/C=C/c1cc(C(=O)O)c2ccccc2n1	-10	-0.3	5%	1.2	-4	7	-0.4	-4.9
52	CN1CCN(C(=O)CN(c2cc(C(F)(F)F)ccc2Cl)S(C)(=O)=O)CC1	-2	0.4	-4%	u	-6	2	x	-0.4
53	CCCS(=O)(=O)c1nc(S(=O)(=O)c2ccc(C)cc2)c(N2CCOCC2)s1	17	0.5	x	-0.7	x	-10	-0.8	3.4
54	CCCCN(CC)C(=O)c1oc2ccc(S(=O)(=O)N3CCCC3)cc2c1C	3	0.5	x	u	-9	24	1.3	1.9
55	CC(C)CC(c1nnnn1Cc1ccc2c(c1)OCO2)N1CCC(C(N)=O)CC1 (stereo not drawn)	0	0.9	-1%	-2.7	-5	0	-0.1	0.1
56	O=C(NCc1cccnc1)c1ccccc1[N+](=O)[O-]	-14	0.2	30%	5.1	-2	-6	-1.2	8.4
57	CCOC(=O)c1c(NC(=O)c2cccs2)sc2c1CCCC2	0	-0.1	4%	2.9	0	-5	x	1.5
58	Cc1cccc(NC(=O)c2nc[nH]c2C(=O)NCCCNC(=O)c2[nH]cnc2C(=O)Nc2cccc(C)c2)c1	x	-1.4	x	x	-6	x	-1.2	-0.7
59	CN(C)c1ccc(C(C(=O)NCC2CCCO2)N(Cc2ccccc2)C(=O)c2snc(C(N)=O)c2N)cc1 (stereo not drawn)	-14	-0.1	x	2.5	10	4	8.3	-3.5
60	O=C(COC(=O)Cc1cccc(C(F)(F)F)c1)Nc1cccc2ccccc12	-14	0.3	4%	2.2	-5	13	x	-4.0
61	CCCCn1c(=O)[nH]c2c(oc3ccccc32)c1=O	-14	0.2	-10%	-4.5	-2	x	-0.5	4.0
62	CN(C)c1ccc(CN(C(=O)COc2ccccc2)C2CCS(=O)(=O)C2)cc1 (stereo not drawn)	6	0.7	6%	-0.6	0	9	x	2.4
63	CC(C)CCn1c(Cl)nc2c1c(=O)n(C)c(=O)n2C	-4	0.4	4%	-1.2	6	33	x	2.0

# From PubChem

# Rows are unselected (roughly 4.3% active in at least one column).
